MgrA-DNA mod: S. aureus MgrA activity modulators, primary screen, biochemical, S. aureus Newman, fluorescence polarization | MgrA-DNA binding | inhibition, %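 (about 10 µg/mL by stock and volumes)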 | hit rate 0.13% among 84,000 | AID 602314, 2012;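 active = above 50% in either of two replicates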;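 also: 0% = protein plus DNA without compound and 100% = DNA alone without protein; higher means less MgrA bound to DNA so lower polarization; one replicate is shown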
S aureus helic: inhibitors of S. aureus replicative helicase, primary screen, biochemical, fluorescence unwinding readout; replicative DNA helicase (DnaC/DnaB), Staphylococcus aureus; purified S. aureus helicase, fluorescence unwinding assay; about half of the hits fall short of the stated cut; inhibition, %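 (tested at about 80 µM)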; hit rate 0.05% among 120,000;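 active = both duplicates at 50% or more, or one of them with a favoured structure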;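 also: 0% = mean of negative control wells and 100% = mean of positive control wells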
* = called active by the depositor; . = no result given; & = joins results of further samples. These rows are one share of the data. The share of hits here may be higher or lower than overall.

#	structure	MgrA-DNA mod	S aureus helic
1	N#Cc1ccc(CSc2nnc(C3CC3)n2C2CC2)cc1	.	9
2	O=C(NCc1cccnc1)c1nn2c(C(F)(F)F)cc(-c3ccc(F)cc3)nc2c1Cl	-1.5	.
3	O=C(O)/C=C/c1ccc(Br)o1	14	-13
4	O=C(NCc1cccc(C(F)(F)F)c1)c1ccc(=O)[nH]c1	.	7
5	Cc1cc(C(F)F)n2ncc(C(=O)N3CCCCC3)c2n1	0.9	0
6	CCOC(=O)c1cc(C)ccc1N=Cc1cc(Cl)cc(Cl)c1O	5.3	.
7	S=c1[nH]nc(Nc2ccccc2)n1-c1ccccc1	4.1	-1
8	COc1ccccc1-c1cc(C(=O)O)c2ccccc2n1	.	-2
9	CCOC(=O)c1ccc2c(c1)N(CC#N)C(=O)C(C)(C)O2	2.1	1
10	COc1ccccc1NC(=O)N(c1c(N)n(Cc2ccccc2)c(=O)[nH]c1=O)C1CCCC1	.	-3
11	Fc1ccccc1Nc1ncnc2sc(-c3ccccc3)cc12	-2.7	11
12	COC(=O)Cn1c(=O)n(-c2ccccc2)c(=O)c2oc3ccccc3c21	.	-5
13	CC(C)(C)c1cc(C(F)(F)F)[nH]n1	-1.8	.
14	COC(=O)c1ccccc1N/C=C/C(=O)c1ccc(Br)cc1	-0.3	-4
15	C/C(=N\OCc1nc(-c2cccc(Cl)c2)no1)c1ccc(Cl)cc1	.	-7
16	COC(=O)CN(C1CCCCC1)S(=O)(=O)c1ccccc1	0.9	5
17	Cc1csc2nc(CS(=O)(=O)c3ccc(Cl)cc3)cn12	1.8	-14
18	CCOC(=O)c1cc(-c2ccc(C)cc2)n(CCCC(=O)NCc2cccs2)c1	.	6
19	O=C1CC(c2ccccc2O)=NN1	.	4
20	COc1ccccc1/C=N/O	.	9
21	CCOc1ccc(C(=O)NCc2ccc3[nH]c4c(c3c2)CCCC4)cc1	5.7	9
22	Cc1cccc(N2CCn3c2nc2c3c(=O)n(C)c(=O)n2C)c1	.	-11
23	CC(C)(C)n1nnnc1C(c1cccnc1)N(Cc1ccccc1)Cc1ccco1 (stereo not drawn)	-0.9	-3
24	CC1CN(c2ncnc3ccsc23)CC(C)O1 (stereo not drawn)	-0.2	.
25	O=c1[nH]c(=S)[nH]c2c1cnn2-c1ccc(F)cc1	.	-31
26	CCOC(=O)c1cc(C)nc(Sc2ccc(C)cc2)c1C#N	2.3	.
27	O=C(Cc1ccccc1)Nc1nonc1-c1ccccc1	.	-18
28	COC(=O)c1ccc(N=c2sc(C(=O)OC)cc(=O)n2C)cc1	.	-6
29	CC(OC(=O)c1cccc(O)c1)C(=O)Nc1cccc(Cl)c1 (stereo not drawn)	.	14
30	CC(=O)N[C@@H](Cc1c[nH]c2ccccc12)C(N)=O	3.0	.
31	O=S(=O)(NCCOc1cccc2cccnc12)c1ccc(F)cc1	1.3	-7
32	COc1ccc(C2Nc3ccccc3C(=O)N2c2ccc(Cl)cc2)cc1COc1ccccn1 (stereo not drawn)	-0.3	.
33	COC(=O)c1ccc(CN2CCCCC2)cc1	.	5
34	O=C(OCC1CC1)c1cnc(N2CCCCC2)nc1C(F)(F)F	0.1	.
35	NS(=O)(=O)C#Cc1ccccc1	1.1	21
36	CCN1CCCC1CNC(=O)CCCn1nc(C)n2c(cc3sccc32)c1=O (stereo not drawn)	.	-1
37	O=C(Nc1ccncc1)c1ccc(Oc2cc(Cl)cc(Cl)c2)o1	0.7	.
38	Cc1cc(N(C)CC(=O)Nc2ccc(OC(F)(F)F)cc2)n2ncnc2n1	.	-2
39	O=C(Sc1ncccc1C(F)(F)F)c1cccc(C(F)(F)F)c1	0.4	.
40	CON(C)S(=O)(=O)c1cc(C(=O)OCc2nc(-c3ccc(Cl)cc3)no2)ccc1Cl	.	1
41	N#Cc1ccc(/C=N/NC(=O)Cn2ccc(C(F)(F)F)n2)cc1	.	7
42	O=C(/C=C1/NCC2c3ccccc3CCN2C1=O)c1ccc(F)cc1 (stereo not drawn)	-1.8	-32
43	COC(=O)c1sccc1S(=O)(=O)Nc1ccc(N2CCCCC2)cc1	-1.0	.
44	Cn1c(-c2ccccc2)c[nH]c1=S	-4.1	10
45	Clc1ccc(-c2csc(N3CCN(c4ccccc4)CC3)n2)cc1	.	2
46	O=C(O)/C=C/c1c(F)c(F)c(N2CCOCC2)c(F)c1F	0.0	8
47	COc1ccccc1NC(=S)C(C#N)C(=O)N1CCOCC1 (stereo not drawn)	3.6	.
48	CC(=O)OCc1ccc(/C=C(/C#N)S(=O)(=O)c2ccccn2)o1	0.3	.
49	COc1ccc(OCCC(=O)NC2=NCCS2)cc1	.	3
50	Nc1n[nH]c2c1C1(CCCC1)Cc1ccccc1-2	1.9	-18
51	CCOc1ccc2nc(SCC(=O)Nc3ccccc3)[nH]c2c1	4.0	4
52	CN(C=C1C(=O)NC(=O)NC1=O)Cc1ccc(Cl)c(Cl)c1	.	-17
53	CN1CCN(c2nc(N3CCN(CCO)CC3)nc3ccccc23)CC1	-2.4	3
54	COc1cc(OC)c2c(C(=O)O)cc(-c3ccc(O)c(OC)c3)nc2c1	.	10
55	CC1CC(C)CN(S(=O)(=O)c2ccc3c(c2)CCN3C(=O)CCC(=O)O)C1 (stereo not drawn)	.	-7
56	O=C(O)CCC(=O)N1CCc2c([nH]c3ccccc23)C1C(F)(F)F (stereo not drawn)	1.6	.
57	N#Cc1c(N2CCCC2=O)sc2c1CCCC2	.	-1
58	FC(F)(F)COc1nc(OCC(F)(F)F)nc(N(c2ccccc2)c2ccccc2)n1	-0.5	12
59	COc1ccc(NC(=O)Cn2c(=O)oc3cc(S(=O)(=O)NCc4ccccc4)ccc32)cc1OC	-1.6	-1
60	c1ccc(-c2cc3c(N4CCCC4)ncnc3s2)cc1	-2.0	.

(continued)
#	structure	MgrA-DNA mod	S aureus helic
61	CCOC(=O)c1cc(CC)sc1NC(=O)CCN1CCCCC1	.	22
62	O=C(CCCn1c(=O)c2cccn2c2cccnc21)Nc1ccccc1F	0.5	6
63	O=C(O)CCOc1ccccc1F	.	-15
64	CC(C)NC(=O)CSc1nc(-c2ccco2)cc(C(F)(F)F)n1	0.1	3
65	N#Cc1cnc(-c2ccncc2)nc1N	0.6	.
66	CCSc1nnc(NC(=O)c2ccc(-c3ccccc3)cc2)s1	.	18
67	O=C(C1CC(=O)N(c2ccccc2)C1)N(Cc1ccccc1)Cc1ccccc1 (stereo not drawn)	-9.5	3
68	Cc1ccc(NCc2cccc3c2CN(CC2CCCO2)C3)cc1 (stereo not drawn)	-11	3
69	Cc1ccc(Cn2cnc3c(cnn3C)c2=O)cc1	0.8	4
70	O=C1CC(c2ccc(OC(F)(F)F)cc2)Sc2ccccc2N1 (stereo not drawn)	-2.3	.
71	OC(CN1CCN(c2ccccc2F)CC1)Cn1nnnc1-c1ccccc1 (stereo not drawn)	.	-24
72	Cc1cc(C(=O)N2N=C(C3CC3)CC2(O)C(F)F)cs1 (stereo not drawn)	.	29
73	Cc1ccc(Nc2nc(N)nc(CSc3nccn3C)n2)cc1	18	-1
74	CCc1nn(CC(=O)N2CCN(C)CC2)c(=O)c2cccn12	.	-5
75	CC(=O)Nc1sc2c(c1C#N)CCCCC2	-0.8	4
76	COc1ccccc1Nc1nc(C)cs1	.	11&-18
77	COc1ccc(Cc2cnc(N)s2)cc1	.	7
78	Cc1noc(C)c1S(=O)(=O)N1Cc2ccccc2CC1C(=O)Nc1ccc(Cl)cc1 (stereo not drawn)	-1.6	10
79	CCc1nnc(NC(=O)c2ccc3c(c2)S(=O)(=O)N=C2CCCCCN23)s1	.	23
80	c1ccc(-c2cnnn2-c2ccccc2)cc1	-0.8	14
81	CC(C#N)Sc1nnc(-c2ccccc2F)n1CCc1ccccc1 (stereo not drawn)	.	-17
82	CC(C)N(Cc1nc(-c2ccccc2)no1)C(=O)c1ccc(Cl)cc1	.	10
83	COC(=O)C1=CN(CC(C)C)C=C(C(=O)OC)C1c1cccs1	-1.1	3
84	Cc1cc(C)nc(SCc2csc(N)n2)n1	1.4	2
85	O=S(=O)(c1ccc(N2CCOCC2)nc1)N1CCSCC1	-1.9	.
86	COc1ccc(S(=O)(=O)NC2CCc3ccccc32)cc1OC (stereo not drawn)	-1.2	.
87	CCOC(=O)c1c(NC(=O)CSc2n[nH]c(N)n2)sc(C(=O)N(CC)CC)c1C	.	-8
88	CC(C)CN1C(=O)c2ccc(C(=O)O)cc2C1=O	-2.5	20
89	CCOC(=O)N1CCC(N2CC34C=CC(O3)C(C(=O)Nc3ccc(C)c(F)c3)C4C2=O)CC1 (stereo not drawn)	.	5
90	O=C(O)c1ccccc1C(=O)N1CCN(c2ccccc2)CC1	-2.2	2
91	c1ccc(CSc2nnc(-c3cccs3)n2-c2ccccc2)cc1	.	7
92	Cc1ccc(N2C(=O)/C(=C/C=C/c3ccccc3)SC2=S)cc1	2.4	6
93	O=C(c1ccccc1)c1ccc(OCC(O)CNCC2CCCO2)cc1 (stereo not drawn)	.	6
94	O=C(Oc1cccc(Br)c1)C1CCCCC1	-0.2	11
95	O=C1CC(C2CCCC=C2N2CCOCC2)C(=O)N1Cc1ccccc1 (stereo not drawn)	-0.4	3
96	CC(=O)Oc1c(C)cc(O)c2ccccc12	1.3	7
97	O=C(CN1CCC(Cc2ccccc2)CC1)c1c[nH]c(C(=O)N2CCCC2)c1	.	-13
98	O=C(CN1C(=O)C2CC=CCC2C1=O)NCCc1ccccc1 (stereo not drawn)	.	-8
99	Nc1sc(=S)n(-c2ccccc2)c1-c1nc2ccccc2s1	3.1	-48
100	COC(C(=O)N/N=C/c1cc(Br)c(C)o1)c1ccccc1 (stereo not drawn)	.	-30

Record cards (already shown). Order of values: MgrA-DNA mod, S aureus helic
Results for O=C(Oc1cccc(Br)c1)C1CCCCC1 = -0.2, 11
Results for O=C(CN1C(=O)C2CC=CCC2C1=O)NCCc1ccccc1 (stereo not drawn) = ., -8
Results for O=C(CN1CCC(Cc2ccccc2)CC1)c1c[nH]c(C(=O)N2CCCC2)c1 = ., -13
Results for CCOC(=O)N1CCC(N2CC34C=CC(O3)C(C(=O)Nc3ccc(C)c(F)c3)C4C2=O)CC1 (stereo not drawn) = ., 5
Results for CCOC(=O)c1c(NC(=O)CSc2n[nH]c(N)n2)sc(C(=O)N(CC)CC)c1C = ., -8

3 entries already listed, sorted by the value under S aureus helic, falling.
#	structure	MgrA-DNA mod	S aureus helic
64	CC(C)NC(=O)CSc1nc(-c2ccco2)cc(C(F)(F)F)n1	0.1	3
36	CCN1CCCC1CNC(=O)CCCn1nc(C)n2c(cc3sccc32)c1=O (stereo not drawn)	.	-1
87	CCOC(=O)c1c(NC(=O)CSc2n[nH]c(N)n2)sc(C(=O)N(CC)CC)c1C	.	-8

Next part
#	structure	MgrA-DNA mod	S aureus helic
101	CN1NC2(CCCCC2)N(c2ccccc2)C1=S	-1.4	17
102	COc1cc(/C=C2\C(=O)NC(=S)N(c3ccc(Br)cc3)C2=O)ccc1OCC(=O)O	28	.
103	CC1=NN(c2ccccc2)C(c2ccc(OCC(=O)N3CCCC3)cc2)C1 (stereo not drawn)	-1.0	13
104	CCc1ccc(NC(=S)Nc2cc(C)cc(C)c2)cc1	-0.8	.
105	CCC(=O)Nc1cccc(-c2nc3ccccc3o2)c1	-1.1	-12
106	CC(C)NC(=O)c1cn2c3c(ccc(Cl)c3c1=O)OC(C)C2 (stereo not drawn)	0.0	4
107	Cc1ccc(C(=O)c2oc3ccccc3c2NC(=O)C2COc3ccccc3O2)cc1 (stereo not drawn)	-0.1	9
108	CC(=O)NCC(=O)OCc1ccc(C(C)(C)C)cc1	.	-3
109	CC1CC(CC(C)C(=O)Nc2cc(Cl)ccc2Cl)C(=O)O1 (stereo not drawn)	-1.0	5
110	CC(C)C(=O)Nc1ccc(NCc2cccs2)cc1	-3.2	-3
111	O=C(CCc1ccccc1)NNc1cc(N2CCCCC2)nc(N2CCCCC2)n1	-0.8	12
112	CN(C)c1cc(NCc2ccco2)c2c3c(onc13)-c1ccccc1C2=O	.	-121
113	CCn1c(NN)nc2sc3c(c2c1=O)CC(C)(C)OC3	3.1	-1
114	O=C1CSC(c2cccnc2)N1c1ccc(C2CCCCC2)cc1 (stereo not drawn)	0.7	.
115	CCOC(=O)c1ccc(N=Cc2c(O)n(CC)c(=O)[nH]c2=O)cc1	4.8	15
116	NS(=O)(=O)c1ccc2[nH]c3c(c2c1)CCCC3	.	5
117	CCCNc1c(NC(=O)C2CCC(C)CC2)c(=O)oc2ccccc12 (stereo not drawn)	.	3
118	Cn1cnnc1SCC(=O)NCc1ccccc1	.	-8
119	CC(C)CNC(N)=O	.	-14
120	CC1CCN(C(=O)COc2ccc(Br)cc2)CC1	-2.0	5
121	c1ccc2oc(SCc3nc4ccccc4s3)nc2c1	.	-4
122	O=C(NCCc1ccncc1)c1ccc(Cl)c(Cl)c1	-1.5	.
123	COc1ccc(CNCc2cccs2)c(OC)c1OC	-1.1	-5
124	CC(=O)OCC(=O)[C@@]1(O)[C@H](C)CC2C3CCC4=CC(=O)C=C[C@]4(C)[C@@]3(F)[C@@H](O)C[C@@]21C (stereo partly drawn)	1.4	.
125	C=C(CC(=O)N1CCOCC1)C(=O)N1CCOCC1	4.2	.
126	O=C(COc1ccc(Cl)cc1)NCCN1CCCCC1	.	-4
127	N#C/C(=C\c1ccc(Cl)c(Cl)c1)c1ccc(NC(N)=O)cc1	0.4	.
128	Fc1cccc(Oc2ncnc3scc(-c4ccccc4)c23)c1	-0.5	-15
129	CN(CCc1ccccn1)Cc1cccc(F)c1	.	1

Reformatted with values under each structure: part of the list above
Second line of a record – MgrA-DNA mod	S aureus helic
92	Cc1ccc(N2C(=O)/C(=C/C=C/c3ccccc3)SC2=S)cc1
→ 2.4	6
93	O=C(c1ccccc1)c1ccc(OCC(O)CNCC2CCCO2)cc1 (stereo not drawn)
→ .	6
94	O=C(Oc1cccc(Br)c1)C1CCCCC1
→ -0.2	11
95	O=C1CC(C2CCCC=C2N2CCOCC2)C(=O)N1Cc1ccccc1 (stereo not drawn)
→ -0.4	3

From PubChem BioAssay
